# Screening data from PubChem.
# UCH37 DUB inh – inhibitors of human deubiquitinating enzyme UCH37; AID 588478; inhibition, % (concentration not given with the values); purified proteasome/UCH37, Ub-AMC cleavage fluorescence; 330,000 compounds, 0.33% hits; Q9Y5K5;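 active = mean of two replicates above 20%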;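 note: 0% = compound-free wells with enzyme and 100% = wells lacking proteasome; stock transfer was 100 nL into about 20 µL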
# Target sequence (Q9Y5K5 whole entry, looked up): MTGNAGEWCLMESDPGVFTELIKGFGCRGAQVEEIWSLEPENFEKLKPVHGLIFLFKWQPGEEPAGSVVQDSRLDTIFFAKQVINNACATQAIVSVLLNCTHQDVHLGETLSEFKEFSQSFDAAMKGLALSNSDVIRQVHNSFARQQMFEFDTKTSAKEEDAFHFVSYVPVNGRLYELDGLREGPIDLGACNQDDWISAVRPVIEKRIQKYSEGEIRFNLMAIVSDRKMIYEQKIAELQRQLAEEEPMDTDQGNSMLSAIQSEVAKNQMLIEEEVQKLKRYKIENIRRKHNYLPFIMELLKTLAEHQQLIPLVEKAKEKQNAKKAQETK
#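 system = Proteasome-associated human UCH37 deubiquitinase | amount = 0.15 nM proteasome as dispensed | medium = pH 7.4 Tris-HCl (50 mM) with ovalbumin, ATP-MgCl2, DTT | incubation = 30 min preincubation with enzyme, 25 min cleavage at room temperature | detection = AMC fluorescence 355/460 nm | read-out basis = percent inhibition | controls = no-proteasome and no-compound wells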
# B2AR ag – activates human beta-2 adrenergic receptor causing internalization | Am2.2-beta2AR cells, FAP receptor internalization, flow cytometry; reference of the scale not given here | response, % (no concentration beside the values) | 340,000 compounds, 0.43% hits | AID 504454;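 active = response above a set limit, near 3 SD of response in nonfluorescent compounds, cut at about 42% in these data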;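 note: stock transfer was 100 nL into about 11 µL; a reference agonist was the positive control; negative values mostly stem from fluorescent compounds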
# Target sequence (P07550 whole entry, looked up): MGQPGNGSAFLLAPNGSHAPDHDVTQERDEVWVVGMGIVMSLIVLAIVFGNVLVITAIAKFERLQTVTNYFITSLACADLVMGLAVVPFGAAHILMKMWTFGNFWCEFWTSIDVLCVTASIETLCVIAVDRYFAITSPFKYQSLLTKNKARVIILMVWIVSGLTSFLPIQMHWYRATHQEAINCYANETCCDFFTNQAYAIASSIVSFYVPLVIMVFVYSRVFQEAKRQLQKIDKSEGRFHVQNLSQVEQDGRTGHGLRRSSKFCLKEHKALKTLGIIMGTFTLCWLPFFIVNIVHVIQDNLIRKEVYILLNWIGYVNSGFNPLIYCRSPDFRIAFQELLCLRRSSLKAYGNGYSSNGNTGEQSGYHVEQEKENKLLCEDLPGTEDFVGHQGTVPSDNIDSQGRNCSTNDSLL
# E coli growth – inhibitors of Escherichia coli growth; OD600, 23 h; hits give low values; OD600 absorbance (test concentration not listed); 330,000 compounds, 0.21% hits; AID 1053175;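 active = OD600 absorbance below the run mean of sample wells minus 3.6 SD, in any replicate, cut at about 0.56 in these data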;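 note: stock transfer was 300 nL into about 60 µL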
# FGF22 binding – binders of recombinant human FGF22 by thermal shift; SYPRO orange fluorescence; percent of sucrose octasulfate shift, DMSO zero; AID 651658; Q9HCT0; 340,000 compounds, 1.5% hits; calls only at 9.99 µM;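 active = melting point raised past a set limit in the mean and every replicate; three in four hits are not shown here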
# rRNA inh HTS – selective bacterial rRNA inhibition in E. coli | E. coli WT GFP vs humanized-ribosome RFP mutants, fluorescence, 24 h; hits give low values; DMSO median 0, no signal -100 | GFP signal change (wild-type ribosome), % (concentration not given with the values) | 350,000 compounds, 1.6% hits;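 active = significant combined selectivity score with lowered wild-type GFP, culture density cut under 30%, mutant RFP and density less affected; inactive = any of these conditions unmet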; note: one replicate is shown; some compounds called inactive have numbers as strong as hits
# ALR inh – blocks human ALR sulfhydryl oxidase activity. P55789. purified ALR, DTT oxidation, H2O2 HRP-luminol luminescence. inhibition, % (no concentration beside the values). 290,000 compounds, 3.8% hits;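 active = mean and each replicate at 75% or more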;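 note: stock transfer was 7.5 nL into about 7.5 µL; 0% = neutral wells and 100% = wells with inactivated enzyme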
# Target sequence (P55789 whole entry, looked up): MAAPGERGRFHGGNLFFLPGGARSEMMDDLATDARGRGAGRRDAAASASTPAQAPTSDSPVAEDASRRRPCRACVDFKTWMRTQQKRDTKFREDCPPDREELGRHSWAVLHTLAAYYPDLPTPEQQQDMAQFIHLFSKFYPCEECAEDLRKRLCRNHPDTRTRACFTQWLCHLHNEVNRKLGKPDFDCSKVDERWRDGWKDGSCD
# HNF4A DNA FP – change in binding of human HNF4 alpha to DNA; 360,000 compounds, 0.3% hits; activity change, % at 10 µM; HNF4a-FITC DNA binding, fluorescence polarization, 1 h; AID 1224865; P41235; in the data active = activity change above about 30%, passing the limit was not always enough;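 note: controls were the assay level and a saturating level of protein; the project sought stronger binding though the title names inhibitors; some compounds called inactive have numbers as strong as hits; positive values seem to mean higher polarization but the record does not say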
# rRNA inh HTS OD600 – further read-out of rRNA inh HTS, marked with its call; OD600 change, %; measured here: OD600 growth;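 optical density of the mix in the first replicate; 0 = DMSO median and -100 = no signal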
# rRNA inh HTS RFP – further read-out of rRNA inh HTS, marked with its call; RFP signal change, %; measured here: RFP humanized mutant strains;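 first replicate; 0 = DMSO median and -100 = no signal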
# * marks the source's active call; other numbers are inactive results; i = inactive; / = not tested or not shown; & = joins results of further samples.
no.	SMILES	B2AR ag	HNF4A DNA FP	ALR inh	UCH37 DUB inh	rRNA inh HTS RFP	FGF22 binding	E coli growth	rRNA inh HTS	rRNA inh HTS OD600
1	CCOc1ccc(CSc2nc(C)cc(COC)c2C#N)cc1OCC	-3	-1.4	17	4.2	-8.0	i	0.64	-13	-8
2	COc1cc(C(=O)N2CCN=C2c2ccccc2)cc(OC)c1OC	2	4.2	5	0.8	/	/	0.78	/	/
3	Cc1ccc(C)c(N2CCN(c3ncccc3[N+](=O)[O-])CC2)c1	30	2.3	4	1.9	-3.6	i	0.69	-9	-17
4	Cc1cnc(C(=O)OCC(=O)N2CCC(C)CC2)cn1	13	-0.4	-3	4.3	0.0	i	0.71	6	9
5	Cn1c(C(=O)NCCN2CCOCC2)cc2sccc21	-3	0.2	-4	1.4	/	/	0.65	/	/
6	O=C(/C=C/c1ccco1)N1CCC(Cc2ccccc2)CC1	2	-11	41	1.1	1.8	i	0.7	1	5
7	CC1CCc2nc3sc4c(c3c(N)c2C1)CCCC4 (stereo not drawn)	-3	1.2	1	3.4	/	/	0.56	/	/
8	CC1(C)CC2CC(C)(CN2C(=O)c2ccc([N+](=O)[O-])cc2)C1 (stereo not drawn)	0	0.7	21	1.1	0.7	i	0.66	17	-2
9	CCOc1ccc(C(=O)Nc2ccc(NC(=S)NC(=O)CC)cc2)cc1Cl	2	0.5	/	4.4	11	i	0.74	4	12
10	COc1cc(SC)ccc1C(=O)NCCNC(=O)c1nonc1N	-8	-0.5	-3	0.4	-1.4	i	0.62	-2	3
11	Nn1c(SCC(=O)NCc2ccc3c(c2)OCO3)nnc1C1CC1	-2	0.1	/	-0.4	/	/	0.64	/	/
12	Cn1c(NCCN2CCOCC2)nc2c1c(=O)n(Cc1cccc(Cl)c1)c(=O)n2C	-1	-2.1	-7	2.7	/	/	0.73	/	/
13	Cc1ccc2nc(-c3ccc(SCC(=O)Nc4cc(C)on4)nc3)[nH]c2c1	18	0.0	47	-3.7	/	/	0.68	/	/
14	Cc1ccc(C(=O)N2CCCCCC2)cc1S(=O)(=O)N1CCOCC1	-1	4.3	-4	3.2	-2.8	i	0.67	2	2
15	CC1CCN(C(=O)CN(C)S(=O)(=O)c2cccc3nsnc23)CC1	10	1.7	-29	3.4	/	/	0.7	/	/
16	COCC(=O)N(CCN(C)C)Cc1cc2cc3c(cc2nc1Cl)OCO3	-3	-1.6	-3	0.7	0.2	/	0.68	18	21
17	CCCCNC(=O)C1(C)CCCCN1C(=O)c1ccc2c(c1)CCO2 (stereo not drawn)	/	0.2	/	/	-2.8	i	/	3	15
18	CN(C)c1cccc2cccc(N(C)C)c12	11	-1.5	43	-4.9	7.6	i	0.63	9	4
19	CC(C)=CC/C=C1\CCC(C(=O)O)C(C(=O)O)C1 (stereo not drawn)	2	-0.3	1	3.1	/	/	0.67	/	/
20	CCN(CC(=O)Nc1c(F)cccc1F)C(=O)c1ccccn1	-2	0.4	2	0.8	-2.2	i	0.65	6	9
21	CC12CCC(=O)N1C(C(=O)NCCN1C(=O)S/C(=C\c3ccc(OC(F)F)cc3)C1=O)CS2 (stereo not drawn)	3	-2.0	-4	5.3	3.7	i	0.63	-2	-19
22	CC(NC(=O)c1ccc(F)cc1)c1ccc(F)cc1 (stereo not drawn)	-2	2.1	-2	1.9	-1.4	i	0.71	8	7
23	O=C(NC1(C(F)(F)F)N=C(c2ccccc2)NC1=O)c1ccc(Cl)cc1Cl (stereo not drawn)	1	-0.3	3	-9.1	/	/	0.72	/	/
24	COCC(C)n1c(C)cc(C(=O)COc2ccc(S(=O)(=O)N3CCOCC3)cc2Cl)c1C (stereo not drawn)	2	-2.0	6	0.4	/	/	0.68	/	/
25	N#C/C(=C\c1ccccc1)c1nc2ncccc2[nH]1	-10	2.0	-5	2.0	/	/	0.75	/	/
26	CCOc1ccc2nc(NC(=O)CSc3nnnn3C3CCCCC3)sc2c1	-5	-3.5	24	5.7	/	/	0.65	/	/
27	COCCCN1C(=O)C(CC(=O)NCCc2ccccn2)CC(C(=O)N2CCOCC2)=C1C (stereo not drawn)	/	0.1	/	/	3.2	i	/	17	13
28	COc1cc(/C=C(\NC(=O)c2ccccc2)C(=O)NCC(=O)O)c([N+](=O)[O-])cc1OC	1	-1.8	-6	2.6	/	/	0.68	/	/
29	O=C1COc2ccc(C(=O)/C=C/c3ccccc3)cc2N1	3	0.7	97*	0.1	/	/	0.67	/	/
30	O=C(O)c1ccc2c(c1)C(=O)N(c1cc([N+](=O)[O-])ccn1)C2=O	-6	-1.9	/	8.2	0.5	i	0.67	12	13

# More compounds follow.
no.	SMILES	B2AR ag	HNF4A DNA FP	ALR inh	UCH37 DUB inh	rRNA inh HTS RFP	FGF22 binding	E coli growth	rRNA inh HTS	rRNA inh HTS OD600
31	O=C(c1ccc(S(=O)(=O)N2CCCCCC2)cc1)N(c1ccccn1)C1CCCCC1	1	0.1	-8	5.0	-3.0	i	0.65	-18	-27
32	COC(=O)C1=C(C)OC(N)=C(C#N)C1c1cc(OC)ccc1OC (stereo not drawn)	4	1.4	4	-2.0	/	/	0.61	/	/
33	COc1ccc(C)cc1NC(=O)Nc1cccc(C(=O)O)c1	-3	2.4	38	3.0	3.6	i	0.65	2	4
34	Cc1ccc(-c2csc(C(C)(O)c3cccc(F)c3)n2)cc1C (stereo not drawn)	/	0.6	/	/	-1.2	i	/	2	-5
35	COc1ccc(C(=O)NCC(=O)OCC(=O)NC2CCCCCC2)cc1	3	-2.8	1	0.3	4.6	i	0.67	-4	5
36	CCCc1cc(=O)oc2c(C)c(OCC(=O)NCc3ccccn3)ccc12	-13	-2.9	-2	-13	0.7	i	0.66	4	1
37	CSCC[C@H](NC(=O)OC(C)(C)C)c1nnc(SCc2cccc(F)c2)o1	-6	-1.7	10	2.1	/	/	0.69	/	/
38	O=C(c1ccc(Cl)c([N+](=O)[O-])c1)N1CCN(S(=O)(=O)c2ccc(Cl)cc2)CC1	24	2.1	-6	5.5	-15	i	0.7	-28	-11
39	C[C@@H]1CN([C@H](C)CO)C(=O)c2cc(Br)cnc2O[C@@H]1CN(C)C(=O)NC1CCCC1	/	-0.7	/	/	-1.8	i	/	7	19
40	O=C(Nc1ccc(NC(=O)c2ccc(S(=O)(=O)c3ccccc3)cc2)cc1)c1ccccc1	-5	1.8	-9	0.1	-1.5	/	0.75	16	10
41	Cc1cc(C)cc(CC(=O)N2CCC2(C)C(=O)NS(=O)(=O)c2ccccc2C)c1 (stereo not drawn)	/	-0.4	/	/	1.5	i	/	2	2
42	Cc1ccc(OCCN2CCNCC2)c([N+](=O)[O-])c1	-3	-0.6	-16	4.0	-1.3	i	0.66	0	-2
43	COc1cc(/C=C(/C(=O)O)c2ccc(-c3ccccc3)cc2)cc(OC)c1OC	7	-2.4	-5	-1.7	0.7	i	0.7	-9	-15
44	COc1cccc(/C=C/C(=O)OCC(=O)N2CCCC2)c1OC	-3	0.2	-18	3.4	6.5	i	0.71	8	17
45	O=C(Nc1ccnn1C1CCN(CC2CC=CCC2)CC1)c1ccccc1 (stereo not drawn)	4	-8.2	/	3.8	-0.2	i	0.73	0	0
46	CC(C)Oc1ccc(S(=O)(=O)N2CCOCC2)cc1NC(=O)c1nn(C)c(=O)c2ccccc12	28	1.1	/	0.4	-1.8	i	0.67	-3	1
47	CNc1c(N)c(=O)oc2ccccc12	-7	-0.9	93*	3.0	3.4	i	0.67	10	13
48	CCN(CC)CCn1c2c(c(SCC(=O)Nc3ccc4c(c3)OCCO4)nc1=O)CCCC2	-6	-1.2	10	-2.6	1.5	i	0.69	6	11
49	O=c1c(CN2CCN(Cc3ccccc3F)C(CCO)C2)coc2ccccc12 (stereo not drawn)	-11	3.0	2	0.0	0.5	i	0.65	-4	0
50	Cc1ccc2c(c1)c1ncnc(N3CCN(c4ccccc4)CC3)c1n2C	6	3.8	29	-33	/	/	0.69	/	/
51	c1cn(CCCNC2=NCCCCC2)cn1	-9	1.2	/	-2.4	/	/	0.73	/	/
52	COC(=O)c1ccc(NC(=O)CN(Cc2ccc(Cl)cc2)S(C)(=O)=O)cc1	8	0.4	-5	4.1	/	/	0.63	/	/
53	C[C@@H]1CN([C@@H](C)CO)C(=O)c2cccc(NS(C)(=O)=O)c2O[C@H]1CN(C)Cc1ccc(C(=O)O)cc1	-2	0.9	2	0.7	-2.2&-8.8	i	0.76	6&0	2&13
54	O=C(NCNC(=O)c1ccccc1)c1ccccc1	63*	3.3	3	-0.4	/	/	0.64	/	/
55	Cc1ccc(CCNC(=O)CC(C)CC2=NS(=O)(=O)c3ccccc3N2)cc1 (stereo not drawn)	-4	5.0	-2	-0.8	0.8	i	0.7	-3	-7
56	Cc1ccc(C)c(C(=O)COc2ncnc3ccccc23)c1	-7	-2.5	5	1.6	-1.0	/	0.7	2	6
57	COC(=O)c1cc2sccc2n1Cc1nc(-c2ccc(Cl)cc2)oc1C	8	-0.4	3	5.2	/	/	0.7	/	/
58	CCN(CC)CCN(C(=O)c1ccc2c(c1)CCCC2)c1nc2c(OC)cccc2s1	/	-2.0	/	/	-17	i	/	-52	-75
59	COc1cc(/C=N/NC(=O)CSc2ccccn2)ccc1OC(C)C	-5	2.9	-6	/	/	i	/	/	/
60	CCCn1nc2cc(C(=O)NCCc3ccc(C)cc3)ccc2c1OCC	0	4.0	4	-54	-2.1	i	0.67	-42	-67

# Along the list, from the results shown:
# Entries 37 to 44 in rRNA inh HTS OD600: /, -11, 19, 10, 2, -2, -15, 17

# Next part.
no.	SMILES	B2AR ag	HNF4A DNA FP	ALR inh	UCH37 DUB inh	rRNA inh HTS RFP	FGF22 binding	E coli growth	rRNA inh HTS	rRNA inh HTS OD600
61	COc1ccc(C(=O)NCCCN2CCN(CCCNC(=O)c3ccc(OC)c(OC)c3)CC2)cc1OC	1	2.3	/	2.1	0.7	i	0.69	11	13
62	CC(NC(=O)CNC(=O)Cc1cccc2ccccc12)c1ccc(S(N)(=O)=O)cc1 (stereo not drawn)	-22	6.3	-21	0.8	-1.6	i	0.73	5	10
63	Cc1cccc(N2CCN(C(=O)CCNC(=O)Cn3ccc4ccccc4c3=O)CC2)c1C	1	1.1	-2	-0.6	/	/	0.68	/	/
64	COc1ccc(OCC(=O)Nc2ccc(NC(=O)c3ccco3)c(C)c2)cc1	-19	3.6	/	4.6	1.0	i	0.66	-6	5
65	CCC1CCCCN1CC(=O)Nc1cc(C)nn1-c1nc(C)cc(C)n1 (stereo not drawn)	-13	-1.3	-2	3.1	6.0	i	0.7	4	-5
66	N#Cc1ccc(OCC(=O)OCCCOC(=O)COc2ccc(C#N)cc2)cc1	14	-1.5	-6	0.7	-4.2	i	0.74	7	-6
67	O=C(CSc1nnnn1-c1cccc2ccccc12)Nc1ccc(N2CCOCC2)c(Cl)c1	6	-7.8	-12	2.4	/	/	0.65	/	/

# Some entries already given, reduced to B2AR ag, rRNA inh HTS RFP and rRNA inh HTS.
entry	compound	B2AR ag	rRNA inh HTS RFP	rRNA inh HTS
63	Cc1cccc(N2CCN(C(=O)CCNC(=O)Cn3ccc4ccccc4c3=O)CC2)c1C	1	/	/
64	COc1ccc(OCC(=O)Nc2ccc(NC(=O)c3ccco3)c(C)c2)cc1	-19	1.0	-6

# Some of the compounds tested. The share of hits here may be higher or lower than overall.
